# KSHV LANA nucl: inhibitors of KSHV LANA binding to nucleosomes; FITC-LANA1-23 / chicken nucleosome fluorescence polarization; stronger effect = lower value; z-score (test concentration not listed); hit rate 0.3% among 51,000;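 active = both repeat wells score below -2 in polarization z-score versus plate sample wells, excluding overly bright wells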;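 note: 100 nL library stock added to about 30 µL; numbers are from one replicate; some results filed as inactive read as strong as hits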
#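 Material: Purified chicken nucleosomes with FITC-labelled LANA N-terminal peptide (1-23) | Reagent: 50 nM FITC-LANA1-23 probe | Medium: TEN-BT buffer, pH 7.5 | Times: 10–45 min incubation at room temperature | Detection: Fluorescence polarization | Replication: Duplicates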
# BasE inh: blocks the Acinetobacter baumannii siderophore enzyme BasE; purified BasE, fluorescence polarization binding displacement; inhibition, % (concentration not given with the values); hit rate 0.1% among 84,000;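 active = both replicates above 25% with normal brightness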;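 note: 0% = negative plate control signal and 100% = positive plate control signal; stock transfer was 100 nL into about 30 µL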
# Starred values were filed as active, the others as inactive; / = not tested or not shown; & = joins results of further samples. Only part of the results is shown. The share of hits here may be higher or lower than overall.
1: CCN1CCC(NC2C3CC4CC(C3)CC2C4)CC1 (stereo not drawn)
2: CC[C@@]1(O)C[C@H](O[C@H]2C[C@H](N(C)C)[C@H](O)[C@H](C)O2)c2c(cc3c(c2O)C(=O)c2c(O)ccc(O)c2C3=O)[C@H]1C(=O)OC
3: COC(=O)CC1=C(C(=O)OC)C2(C(=O)Nc3ccc(F)cc32)C(C#N)=C(N)O1 (stereo not drawn)
4: CCC1(C)CC2(CCCN(CCO)C2)CCO1 (stereo not drawn)
5: COP1(=S)C2=C(N3CCCC3)CCCC2=NN1c1ccccc1 (stereo not drawn)
6: CC1(C)CC(=O)C2=C(C1)OC(N)=C(C(=O)OC(C)(C)C)C21C(=O)Nc2ccccc21 (stereo not drawn)
assay / compound | 1 | 2 | 3 | 4 | 5 | 6
KSHV LANA nucl | -0.034 | -2.8* | -0.95 | -0.21 | / | /
BasE inh | -2.6 | 4.9 | 1.2 | 4.4 | 1.8 | -1.9

7: OP(=S)(c1ccncc1)c1ccncc1
8: CN1C(=C2C(=O)NC(=O)NC2=O)Sc2ccccc21
9: CCN(CC)Cc1c[nH]c2ccccc12
10: O=C(O)CP(=O)(O)c1ccc(Cl)cc1
11: CC(=O)Nc1ccccc1C(=O)OCc1ccccc1F
12: CC1CCC(NCCc2ccc3c(c2)OCO3)CC1 (stereo not drawn)
assay / compound | 7 | 8 | 9 | 10 | 11 | 12
KSHV LANA nucl | / | 0.3 | -0.42 | / | -0.37 | 0.82
BasE inh | 0.8 | 0.3 | 1.0 | 1.3 | -0.1 | -2.7

13: CC(C)c1ccc(C=C2C(=O)NC(=O)NC2=O)cc1
14: CN1CCSC1=Nc1ccc(OC(F)F)cc1
15: O=C(CNC1CCCCC1)c1ccc(O)c(O)c1
16: C[C@]12CCC(=O)C=C1CC[C@@H]1[C@@H]2C(=O)C[C@]2(C)C(=O)CC[C@@H]12
17: CN1C2CCC1CC(OC(=O)c1ccc(Cl)cc1)C2 (stereo not drawn)
18: O=C1NC(=S)N(c2ccccc2)C(=O)/C1=C/C=C/c1ccco1
assay / compound | 13 | 14 | 15 | 16 | 17 | 18
KSHV LANA nucl | / | / | -0.26 | -1 | 0.57 | /
BasE inh | 1.0 | 1.2 | 1.5 | 0.3 | -4.9 | 8.4

19: C[C@@H]1O[C@@H](O[C@H]2C[C@@H](O)[C@]3(CO)C4C(CC[C@]3(O)C2)[C@@]2(O)CC[C@H](C3=CC(=O)OC3)[C@@]2(C)C[C@H]4O)[C@H](O)[C@H](O)[C@H]1O (stereo partly drawn)
20: C1=CCC2CCC(C1)N2
21: N#Cc1cccs1
22: Cc1cc(O)c(CN2CC=C(c3ccccc3)CC2)cc1C(C)C
23: OC(CNC1CCCC1)C(F)(F)F (stereo not drawn)
24: Cc1c(C(=O)c2cccc3ccccc23)c2cccc3c2n1[C@H](CN1CCOCC1)CO3
assay / compound | 19 | 20 | 21 | 22 | 23 | 24
KSHV LANA nucl | -0.13&0.91 | -0.001 | / | / | -0.034 | 0.14
BasE inh | -3.0 | 1.5 | 1.5 | -1.8 | / | -3.2

# A stretch from further up, for reference:
23: OC(CNC1CCCC1)C(F)(F)F (stereo not drawn)
24: Cc1c(C(=O)c2cccc3ccccc23)c2cccc3c2n1[C@H](CN1CCOCC1)CO3
assay / compound | 23 | 24
KSHV LANA nucl | -0.034 | 0.14
BasE inh | / | -3.2

# Carrying on.
25: COc1ccc(C(=O)O[C@H]2CC[C@@]3(C)[C@@H]4CC[C@H]5[C@]6(O)C[C@H](O)[C@@]7(O)[C@@H](CN8C[C@@H](C)CC[C@H]8[C@@]7(C)O)[C@]6(O)C[C@@]53O[C@]24O)cc1OC
26: CC(C)CC(N(C)C)C1(c2ccc(Cl)cc2)CCC1 (stereo not drawn)
27: CN1CCN(Cc2ccccc2)CC1
28: CC(O)(CS(=O)(=O)c1ccc(F)cc1)C(=O)Nc1ccc(C#N)c(C(F)(F)F)c1 (stereo not drawn)
29: N#CC(O[C@@H]1O[C@H](CO[C@@H]2O[C@H](CO)[C@@H](O)[C@H](O)[C@H]2O)[C@@H](O)[C@H](O)[C@H]1O)c1ccccc1 (stereo partly drawn)
30: CC12CCC3C(CCC4=CC(=O)CCC43C)C1CCC2=O (stereo not drawn)
assay / compound | 25 | 26 | 27 | 28 | 29 | 30
KSHV LANA nucl | -0.5 | -0.19&-0.2&-0.11&0.53&0.37 | 0.19 | -0.12&0.56 | -0.86 | 0.47
BasE inh | 1.0 | 0.5 | -0.1 | / | -0.7 | -1.6

31: COC(=O)c1cn(Cc2ccccc2C#N)c2ccccc12
32: CC(=O)O[C@H]1C(=O)[C@@]2(C)C([C@H](OC(=O)c3ccccc3)[C@]3(O)C[C@H](O)C(C)=C1C3(C)C)[C@]1(OC(C)=O)CO[C@@H]1C[C@@H]2O (stereo partly drawn)
33: CC1(C)C2CC=C(CN3CCC(O)CC3)C1C2 (stereo not drawn)
34: CCCOc1ccc(CCN)cc1Cl
35: NC(CC(=O)O)C1CC=CCC1 (stereo not drawn)
36: O=C1NC(=O)C(=CC2CC=CCC2)C(=O)N1 (stereo not drawn)
assay / compound | 31 | 32 | 33 | 34 | 35 | 36
KSHV LANA nucl | 0.73 | 0.74 | 0.62 | -0.98 | -0.013 | /
BasE inh | 0.9 | 1.4 | 0.1 | -11 | / | 0.9

37: CCCCn1c(=O)c(C(=O)NC)c(O)c2ccccc21
38: CC(CO)NC(=O)C1C=C2c3cccc4[nH]cc(c34)C[C@H]2N(C)C1 (stereo partly drawn)
39: CCC(C)[C@H]1O[C@]2(C=C[C@@H]1C)C[C@@H]1C[C@@H](C/C=C(\C)[C@@H](OC3C[C@H](OC)C(O[C@H]4C[C@H](OC)[C@@H](O)[C@H](C)O4)[C@H](C)O3)[C@@H](C)/C=C/C=C3\CO[C@@H]4[C@H](O)C(C)=C[C@@H](C(=O)O1)[C@]34O)O2 (stereo partly drawn)
40: CCOc1ccc(C2SCC(=O)Nc3c2c(=O)[nH]n3C(C)C)cc1 (stereo not drawn)
41: Cc1nn(-c2ccccc2)c2c1P(=S)(N1CCOCC1)N(C)C(c1ccccc1)=N2 (stereo not drawn)
42: COc1ccc(C(CN)CC(=O)O)cc1 (stereo not drawn)
assay / compound | 37 | 38 | 39 | 40 | 41 | 42
KSHV LANA nucl | 0.59 | -0.18&0.14 | -0.54&-0.65 | 2 | / | -0.99
BasE inh | -1.5 | -1.8 | -2.4 | -3.7 | 0.4 | 1.0

43: O=c1cccc2n1CC1CNCC2C1 (stereo not drawn)
44: CCN1C(=O)NC(=O)/C(=C\c2cn(CC(=O)O)c3ccccc23)C1=O
45: CN1CCN(c2cc(Cl)c(C#N)cc2F)CC1
46: Clc1ccc(N2CCNCC2)cc1
47: CCNc1nc2c(=O)[nH]sc2c2c1C(c1cccnc1)C(C#N)=C(N)O2 (stereo not drawn)
48: C[C@]12CCC3C(CC[C@H]4CC(=O)CC[C@]34C)C1CCC2=O (stereo partly drawn)
assay / compound | 43 | 44 | 45 | 46 | 47 | 48
KSHV LANA nucl | 0.93 | -0.12 | -0.42 | / | 0.31 | -0.51
BasE inh | -1.3 | 2.4 | / | -1.3 | -1.4 | -1.7

# Compounds shown so far with an aryl methoxy group:
25: COc1ccc(C(=O)O[C@H]2CC[C@@]3(C)[C@@H]4CC[C@H]5[C@]6(O)C[C@H](O)[C@@]7(O)[C@@H](CN8C[C@@H](C)CC[C@H]8[C@@]7(C)O)[C@]6(O)C[C@@]53O[C@]24O)cc1OC
42: COc1ccc(C(CN)CC(=O)O)cc1 (stereo not drawn)
assay / compound | 25 | 42
KSHV LANA nucl | -0.5 | -0.99
BasE inh | 1.0 | 1.0

# More entries follow:
49: CC[C@H](CO)NC(=O)[C@@H]1C=C2c3cccc4[nH]cc(c34)C[C@H]2N(C)C1
50: Fc1ccc(C(OCCN2CCN(CCCc3ccccc3)CC2)c2ccc(F)cc2)cc1
51: CCOC(=O)C1=C(N)Oc2cc(O)ccc2C12C(=O)N1c3c(cccc32)C(C)CC1(C)C (stereo not drawn)
52: O=c1cccc2n1CC1CC2CN(Cc2nnc(-c3ccc4c(c3)OCO4)o2)C1 (stereo not drawn)
53: N#CCc1ccc(F)cc1
54: NCCc1ccc(Cl)cc1
assay / compound | 49 | 50 | 51 | 52 | 53 | 54
KSHV LANA nucl | 0.19 | 0.91 | 0.1 | -0.22 | / | /
BasE inh | 7.0 | -2.4 | 3.0 | 0.5 | 1.1 | -2.3

55: Cc1nc(-c2ccccc2)nc(OC(=O)N(C)C)c1Oc1ccc(Cl)cc1Cl
56: C/C1=C/C(=O)O[C@@H]2C[C@@H](CC[C@H](C)/C=C\CC1)O[C@@](O)([C@@H]1CSC(=O)N1)C2
57: Cc1ccccc1N1CCNCC1
58: CN1CCN(c2ccc(-c3ccno3)cc2)CC1
59: O=C(Cn1ccc2ccccc2c1=O)NCC(=O)N1CCC2(CC1)OCCO2
60: CC1CCN(CC(=O)c2ccc(OC(F)F)cc2)CC1
assay / compound | 55 | 56 | 57 | 58 | 59 | 60
KSHV LANA nucl | / | 0.078 | / | -1.1 | 0.22 | /
BasE inh | 0.7 | -0.2 | 1.6 | / | 4.6 | 1.1

61: O=C(O)c1cncc(O)c1
62: CN1C(CC(O)c2ccccc2)CCCC1CC(O)c1ccccc1 (stereo not drawn)
63: OC1(c2cccc(F)c2)CC2CCC(C1)N2Cc1nnnn1CCc1ccccc1 (stereo not drawn)
64: O=C(COc1ccc(OCc2ccccc2)cc1)NC1CN2CCC1CC2 (stereo not drawn)
65: C=CCN1C(=O)NC(=O)/C(=C/c2ccco2)C1=O
66: Cc1cc(OCc2c(F)cccc2Cl)c2c3c(c(=O)oc2c1)CCCC3
assay / compound | 61 | 62 | 63 | 64 | 65 | 66
KSHV LANA nucl | -1.4 | -0.18 | 0.034 | / | / | /
BasE inh | -0.8 | -1.0 | 1.4 | 2.2 | 1.6 | 0.8

# Structures above that contain a CF3 group, in the order listed:
23: OC(CNC1CCCC1)C(F)(F)F (stereo not drawn)
28: CC(O)(CS(=O)(=O)c1ccc(F)cc1)C(=O)Nc1ccc(C#N)c(C(F)(F)F)c1 (stereo not drawn)
assay / compound | 23 | 28
KSHV LANA nucl | -0.034 | -0.12&0.56
BasE inh | / | /

# Following part.
67: CCOP(=S)(NC(C)(C)C)OCC
68: CCOC(=O)c1c(NS(=O)(=O)c2ccccc2)n(CCCOC)c2nc3ccccc3nc12
69: O=C(CNC(=O)c1cccc(Cl)c1)Nc1ccc(Br)cc1C(=O)c1ccccc1
70: COC(=O)c1cc(C(O)(C(=O)OC)C(F)(F)F)c(/N=C/N(C)C)s1 (stereo not drawn)
71: CC(N)CCc1ccc(Cl)cc1 (stereo not drawn)
72: OC1C2CCC1C(N1CCCC1)CC2 (stereo not drawn)
assay / compound | 67 | 68 | 69 | 70 | 71 | 72
KSHV LANA nucl | 0.14 | / | / | / | 0.059 | 0.14
BasE inh | 1.8 | -0.8 | 0.1 | -2.4 | -7.3 | 1.5

73: Clc1ccc(CN2CCOCC2)cn1
74: CCC1(CC)C(=O)NC(=NCc2ccc(OC)cc2)N(C)C1=O
75: COc1ccc2c(c1OC)C(=O)O[C@H]2[C@H]1c2cc3c(cc2CCN1C)OCO3
76: Nc1ccncc1Cl
77: CC(Cc1c[nH]c2ccccc12)N(Cc1ccccc1)Cc1ccccc1 (stereo not drawn)
78: C[C@H]1CN(C2CCC(C#N)(c3ccc(F)cc3)CC2)CC[C@@]1(C(=O)O)c1ccccc1 (stereo partly drawn)
assay / compound | 73 | 74 | 75 | 76 | 77 | 78
KSHV LANA nucl | 0.86 | 1.4 | 0.97 | / | / | -0.76
BasE inh | / | 1.1 | 1.7 | 2.5 | 4.2 | /

79: NCCc1cccs1
80: N#CSC12CN3CN(CN(C3)C1)C2
81: O=C(CCC(=O)N1CC2CC(C1)c1cccc(=O)n1C2)N1CCCCCC1 (stereo not drawn)
82: CCN(CC)C(=O)CN1CCCN(Cc2ccc(F)cc2)S1(=O)=O
83: CC(C)(O)[C@@H]1[C@H]2OC(=O)[C@@H]1[C@]1(O)C[C@H]3O[C@]34C(=O)O[C@H]2[C@]14C (tested in a mixture with another compound)
84: OC1CCNC2CCCCC12 (stereo not drawn)
assay / compound | 79 | 80 | 81 | 82 | 83 | 84
KSHV LANA nucl | / | -0.27 | 0.23 | -0.46 | 0.26 | 0.57
BasE inh | 5.5 | 2.0 | 0.8 | 2.2 | / | 0.1

85: O=c1c2ccccc2nc(CNc2ccccc2)n1-c1ccccc1
86: Cc1ccc2c(c1)c1c3n2CNCC3CCC1 (stereo not drawn)
87: C[C@]12CCC(=O)C=C1CCC1C2CC[C@@]2(C)C1CC[C@@H]2O (stereo partly drawn)
88: CN1C2CCC1CC(O)C2 (stereo not drawn)
89: CCn1c(=O)cc(OCC(=O)N2CCC3(CC2)OCCO3)c2ccccc21
90: Clc1ccc2c(N3CCNCC3)ccnc2c1
assay / compound | 85 | 86 | 87 | 88 | 89 | 90
KSHV LANA nucl | / | -0.2 | 0.47 | -0.15&-0.034 | 0.19 | 0.22
BasE inh | -0.9 | 4.1 | / | 1.3&-1.8 | 0.2 | -2.8

# Entries of single compounds, looked up by structure.
# Shown for `Cc1ccc2c(c1)c1c3n2CNCC3CCC1` (stereo not drawn) = KSHV LANA nucl: -0.2; BasE inh: 4.1
# Shown for `C[C@]12CCC(=O)C=C1CCC1C2CC[C@@]2(C)C1CC[C@@H]2O` (stereo partly drawn) = KSHV LANA nucl: 0.47; BasE inh: /

# Next entries:
91: CN[C@@H](C)[C@@H](O)c1ccccc1
92: CCOc1ccc(CN(CCc2ccc3c(c2)OCO3)Cc2ccccc2)cc1
93: C[N+]1(C)CCOC(O)(c2ccc(-c3ccc(C4(O)C[N+](C)(C)CCO4)cc3)cc2)C1 (stereo not drawn)
94: n1onc2c1NC1Nc3nonc3NC1N2 (stereo not drawn)
95: CCC1(CC)C(=O)C=CNC1=O
assay / compound | 91 | 92 | 93 | 94 | 95
KSHV LANA nucl | 0.48&0.15 | / | -0.28 | 2.9 | 0.35&-0.017
BasE inh | -1.8 | -0.4 | -4.5 | -20 | 1.0&3.0
